Compound activity deposited in PubChem by National Center for Advancing Translational Sciences (NCATS).
Menin-MLL FL inh = displaces fluorescein MLL peptide from human menin. Fluorescence polarization, fluorescein-MLL peptide displacement from menin. FP activity change, % at 61.4 µM. 290,000 tested, under 10 active; inconclusive = falling polarisation curve, or a change in total fluorescence; inactive = total fluorescence flat and polarisation flat or rising; no compound was filed as active; the % refers to the polarisation; negative = inhibition;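 further: % of control where 0% means no effect; inhibitors lower the polarisation; unlabelled MLL peptide was the positive control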
PINK1 modulator = changes PINK1 expression. PINK1 immunofluorescence, high-content cytometry, 24 h. 0.2% of 410,000 active. Potency, µM (titrated, usually from 76.6 µM), for the others: at the top dose activation (PINK1 increase), usual class: activators. AID 624263; active = well fitted activation curve with a large enough effect; inconclusive = small, poorly fitted or top-dose-only effect; inactive = flat fitted curve, though single readings scatter; cell line not stated here;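 further: potency means the concentration at half of the fitted maximal effect; % of control where 0% means no effect; nearly all actives have a fitted effect of over 65% in size; a mitochondrial uncoupler was the plate control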
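PINK1 protein, normally rapidly degraded, was detected by immunofluorescence after 24 hour compound treatment of a stable cell line. Titration data (5 concentrations) came from laser-scanning cytometry, with CCCP-treated wells as controls.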
gsp ag = agonists of gsp mutant (McCune-Albright syndrome). gsp mutant cells, cAMP HTRF, 30 min; control for the full effect not named in the record. Potency, µM (top dose mostly 76.9 µM), for the others: top-dose activation (cAMP increase), usual class: activators. 0.13% of 340,000 active; active = well fitted activation curve with a large enough effect; inconclusive = small, poorly fitted or top-dose-only effect, or another doubt; inactive = no such curve, though single readings can be large or run the other way; cell line not stated here;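 further: phosphodiesterase inhibitor Ro 20-1724 added with compounds to block cAMP breakdown; potency means the concentration at half of the fitted maximal effect; nearly all actives have a fitted effect of over 60% in size; about a fifth of the inactives were tested at one dose only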
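Cells stably selected in G418 were plated at 2000/well, grown 16-24 hr, then given compounds in DMSO with the PDE inhibitor […] (300 uM solution added) for 30 min at 37C; cAMP was read by HTRF.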
D2 ag = human D2 receptor agonism in beta-arrestin assay; P14416; DiscoveRx PathHunter D2 beta-arrestin, luminescence, 90 min; 100% = 57 uM dopamine signal; activation, % (no concentration beside the values); 0.084% of 360,000 active; AID 624465; in the data active = activation above about 40%; inconclusive = about 15% to 40%; inactive = below about 15%; further: compound concentration not given in the record; the text of the record calls up to 30% inactive
Target sequence (P14416 whole entry, looked up): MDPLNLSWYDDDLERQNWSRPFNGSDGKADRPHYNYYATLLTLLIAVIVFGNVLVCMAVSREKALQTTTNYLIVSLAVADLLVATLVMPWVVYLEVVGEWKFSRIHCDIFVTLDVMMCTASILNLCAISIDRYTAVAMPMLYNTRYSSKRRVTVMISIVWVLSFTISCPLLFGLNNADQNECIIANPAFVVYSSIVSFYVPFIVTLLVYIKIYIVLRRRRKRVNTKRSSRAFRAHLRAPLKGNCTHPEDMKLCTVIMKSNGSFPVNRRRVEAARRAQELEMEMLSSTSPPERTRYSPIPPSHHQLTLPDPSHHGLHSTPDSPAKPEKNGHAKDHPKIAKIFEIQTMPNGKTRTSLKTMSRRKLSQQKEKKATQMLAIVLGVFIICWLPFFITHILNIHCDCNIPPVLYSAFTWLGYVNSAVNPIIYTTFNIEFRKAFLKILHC
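DiscoveRx PathHunter D2 beta-arrestin cells (2,100/well) attached overnight, then compound-stimulated 90 min at 37 C in HBSS/10 mM HEPES/0.1% Tween-20 buffer; beta-galactosidase complementation read by luminescence after 1 h at ambient temperature. Dopamine 57 uM final (EC100) as control.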
gsp antagonist = antagonists of gsp mutant (McCune-Albright syndrome). 0.4% of 340,000 active. AID 624288. Potency, µM (highest dose often 76.9 µM), inactives show at the top dose activity change, negative = inhibition, most hits filed as inhibitors. gsp-mutant cells, cAMP HTRF, 30 min; control for the full effect not named in the record; active = falling curve of any shape with a large fitted effect; inconclusive = falling curve, mostly with a smaller effect; inactive = flat or rising curve; cell line not stated here;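 further: intracellular cAMP measured with PDE inhibitor Ro 20-1724 present during compound exposure; potency means the concentration at half of the fitted maximal effect; on the % scale 0 is the no-effect control and ±100 the full control effect; nearly all actives have a fitted effect of over 65% in size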
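Cells, 2000/well, grown 16–24 h in DMEM 10% FBS with 0.5 mg/ml G418, then compounds plus […] (300 uM addition stock), 30 min at 37C. cAMP read by HTRF (cAMP-d2 and anti-cAMP antibody-K in lysis buffer) after 30 min RT.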
ClpP mod = qHTS Assay for Activators of ClpP; Potency, µM (series often up to 57.5 µM), for inactives: at the highest dose activity change, negative = active; purified B. subtilis ClpP, FRET peptide cleavage, 20 min; 1.9% of 340,000 active; active = well fitted falling curve with a large enough effect; inconclusive = small, poorly fitted or top-dose-only effect; inactive = no such curve, though single readings can be large or run the other way; further: potency means the concentration at half of the fitted maximal effect; the source files actives as falling curves though it sought activators and does not explain the sign; nearly all actives have a fitted effect of over 65% in size; many hits overshoot -100%
Target sequence (P80244 whole entry, looked up): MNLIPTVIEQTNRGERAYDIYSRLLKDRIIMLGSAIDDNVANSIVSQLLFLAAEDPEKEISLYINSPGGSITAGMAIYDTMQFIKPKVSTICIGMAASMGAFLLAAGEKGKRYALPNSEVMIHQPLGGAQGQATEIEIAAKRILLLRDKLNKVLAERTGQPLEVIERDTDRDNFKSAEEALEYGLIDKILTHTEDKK
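Purified B. subtilis ClpP, 10 microg/mL final in Tris/HCl pH8 with KCl, BSA, glycerol and Tween-20, cleaved an Abz/nitrotyrosine-quenched decapeptide. Fluorescence (ex 320, em 430) was read at 0 and 20 min at room temperature. Delta was normalized to 5.8 microM ADEP and DMSO/no-enzyme controls.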
Sfp PPTase inh = blocks B. subtilis Sfp PPTase activity; 3.5% of 310,000 active; Potency, µM, inactives show max response, negative = inhibition, most hits filed as inhibitors; Q9F4F7; Biochemical Sfp PPTase activity, qHTS; active means well fitted inhibition curve with a large enough effect; inconclusive means small, poorly fitted or top-dose-only effect, or another doubt; inactive means no such curve, though single readings can be large or run the other way;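 further: the enzyme is Sfp with the accession as filed and its product quenches rhodamine fluorescence; potency means the concentration at half of the fitted maximal effect; 0% = enzyme reaction without inhibitor and -100% = no enzyme wells; top concentration of the series not given in the record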
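Fluorescence-quenching assay: 15 nM Sfp-PPTase preincubated 15 min at room temperature with compound, then 5 uM rhodamine-CoA and 12.5 uM BHQ-2-labelled YbbR peptide added. Fluorescence (ex 525/em 598 nm) read at start and after 30 min; difference gives rate.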
* = called active by the depositor; ? = inconclusive; nt = no result given; [ ] = another dose, or the depositor's remark.

SMILES	Menin-MLL FL inh	PINK1 modulator	gsp ag	D2 ag	gsp antagonist	ClpP mod	Sfp PPTase inh
O=C(Nc1ccc2c3c(cccc13)CC2)c1ccco1	2.2	-0.2%	0%	0.0	-2%	-24%	10%
COc1ccc(Br)cc1/C=C/C(=O)Nc1ccc(C)cc1	3.8	4.5%	-7%[15.4 µM]	1.7	-19%	1.1%	16%
CC(=O)Oc1ccc2c(=O)c(N3C(=O)c4ccccc4C3=O)c(C)oc2c1	-0.8	3.5%	-49%[inhibitor]	-1.6	-6%	17%	-1%
Cc1[nH]nc2c1C(c1cccs1)C1=C(CCCC1=O)N2 (stereo not drawn)	-0.6	1.5%	5%[15.4 µM]	-2.6	5%	1.1%	19%
CCc1ncc(CN2CCCCC2C(=O)Nc2ccc(Oc3ccccc3)nc2)cn1 (stereo not drawn)	nt	1.6%	-3%	-2.8	-11%	-0.8%	18%
O=C(Nc1ccccc1N1CCCCC1)c1cnccn1	0.1	1.4%	16%	1.7	5%	nt	13%
CC(=O)Nc1cccc(-c2cc(C)c3cc4c(cc3n2)OCO4)c1	?	2.2%	6%	-3.1	?	nt	2%
COc1cccc(N(CC(=O)NC2CC3CCC2C3)S(=O)(=O)c2ccccc2)c1 (stereo not drawn)	0.0	0.7%	-6%[15.4 µM]	-0.4	nt	nt	23%
COc1ccc(O)c(CNn2c(-c3ccc(Br)cc3)nc3ccccc3c2=O)c1	5.7	8.7%	0%[15.4 µM]	-3.0	?	nt	-16%
CCOc1ccc(NC(c2ccccc2)P(=O)(OC)OC)cc1 (stereo not drawn)	2.3	1.0%	-5%	-1.4	2%	1.2%	7%
CCn1nnnc1SCC(=O)N1CCc2ccccc21	nt	-1.0%	3%[15.4 µM]	-1.8	7%	-1.9%	nt
CCc1nc2ccccc2n1Cc1ccccc1OC	-0.2	9.2%	1%	0.5	-6%	-2.1%	?
C[C@H](CO)N1C[C@H](C)[C@@H](CN(C)Cc2ccc3c(c2)OCCN3C)OCc2cnnn2CCCC1=O	nt	1.2%	-347%[inhibitor]	3.8	nt	0.3%	nt
CSc1ncccc1C(=O)OCC(=O)c1ccc(C)s1	nt	1.2%	23%	-2.5	-3%	nt	nt
Cc1ccc(NC(=O)N2CCCC2C(=O)Nc2ccc3c(c2)OCCO3)cc1 (stereo not drawn)	5.5	0.1%	-2%[15.4 µM]	-5.9	3%	nt	-9%
O=C(CSc1ccccc1)NCCSCc1ccccc1	-0.2	3.6%	5%	-2.7	2%	0.2%	25%
Cc1cc2nnc(SCC(=O)N3CCOCC3)n2c2ccccc12	0.0	-1.3%	-1%[15.4 µM]	-2.5	nt	nt	14%
CCCCc1cc(=O)oc2c(CN(C)C)c(O)c(Cl)cc12	4.0	2.5%[38.3 µM]	13%	0.3	8%	-41%	?
CC(NCCO)C(=O)C12CC3CC(CC(C3)C1)C2 (stereo not drawn)	-1.4	-2.6%	?	-1.0	6%	-3.3%	2%
C/C=C(\C)CN1CCC(n2nccc2NC(=O)c2ccc(OC)cc2)CC1	nt	-1.2%	-52%[inhibitor]	-1.4	4%	1.4%	16%
CCCCC(=O)N(C)c1c(CC)nc2c(OCC=C(C)C)cccn12	nt	11%	nt	-6.2	nt	-11%	nt
COc1cccc(C(=O)Nc2ccc(NC(=O)C(C)C)nc2)c1	-2.6	0.8%	0%	-2.9	1%	-1.6%	10%
CC1C(=O)N(Cc2cn(CCC3OCCCO3)nn2)CCS(=O)(=O)N1Cc1ccc(-c2cccc(CO)c2)cc1 (stereo not drawn)	nt	0.2%	14%	-6.8	nt	-2.3%	nt
O=c1oc2ccccc2cc1-c1ccc(O)cc1	-4.3	4.6%	-3%	0.7	3%	-28%	?
COc1ccc(N2CCN(C(=O)CN(c3ccccc3)S(C)(=O)=O)CC2)cc1	14	-0.9%	-7%	-3.5	-5%	-2.1%	7%
O=C(O)CNc1nc(Cl)ccc1[N+](=O)[O-]	0.2	1.5%	12%	-7.5	-16%	-2.8%	24%
CC(=O)NC(CCS(C)(=O)=O)C(=O)N1CCc2ccccc21 (stereo not drawn)	6.9	nt	-4%	1.1	6%	-1.3%	9%
O=C(Nc1ccc(F)c(Cl)c1)c1csc([C@@H]2O[C@H](CO)[C@H](O)[C@H](O)[C@H]2O)n1	nt	-0.5%	nt	-8.8	nt	1.6%	nt
Cc1cc(C)c2nc(C)cc(Nc3ccc(C(=O)NCCO)cc3)c2c1	1.4	1.8%	19%	1.6	-4%	nt	14%
C/C(=N\NC1=NCCN1)c1ccccc1	-0.6	-0.4%	5%[15.4 µM]	-2.6	7%	-2.3%	8%
O=C(Cc1ccccc1[N+](=O)[O-])OCC(=O)c1c[nH]c2ccccc12	nt	-1.0%	-18%[15.4 µM]	0.7	5%	-0.9%	nt
COCCn1c(C)cc(/C=C(\C#N)C(=O)OCC(=O)Nc2ccc(S(N)(=O)=O)cc2)c1C	nt	20%	-2%[15.4 µM]	-1.5	7%	nt	nt
CCCc1c(C(=O)N2CCN(c3ccccc3OC)CC2)cnn1-c1ccccc1	-0.2	0.6%	8%[15.4 µM]	-3.6	-6%	0.3%	4%
CC(C)n1cnc2c(NCc3ccccc3)cc(N[C@H](C)CO)cc21	nt	3.7%	nt	5.2	-12%	-10%	nt
Nc1cc(=O)n(Cc2ccccc2)c(=O)n1Cc1ccccc1	nt	-2.7%	-2%	-5.2	-5%	-4.8%	nt
COc1cccc(NC(=O)C2CCC(CNS(=O)(=O)c3cccs3)CC2)c1 (stereo not drawn)	-5.9	-4.9%	-39%[inhibitor]	3.3	-14%	nt	15%
CC(=O)Oc1ccc(Cn2c(C)c(C(=O)NCc3ccc(C#N)cc3)sc2=O)cc1	nt	0.6%	nt	-1.6	nt	-2.1%	nt
Cc1ccc(NC(=O)CN2CCCCCC2)cc1Br	3.2	3.3%	-28%[15.4 µM]	0.4	5%	nt	-14%
Fc1cccc2sc(N3CCOCC3)nc12	-0.8	-1.6%	-23%	-2.9	0%	0.8%	12%
CC(C)OCC1Cn2c(nc3c2c(=O)n(C)c(=O)n3C)O1 (stereo not drawn)	-2.0	-0.7%	-10%[15.4 µM]	-2.1	13%	nt	22%
COc1ccc(C(N)c2csc(Nc3ncccn3)n2)cc1 (stereo not drawn)	nt	1.0%	nt	-7.9	nt	0.5%	nt
CC(C)OC(=O)c1cc(NC(=O)C2C3C=CC(O3)C2C(=O)O)cc(C(=O)OC(C)C)c1 (stereo not drawn)	-3.7	-2.4%	-28%	3.8	-14%	nt	7%
COc1ccc(S(=O)(=O)NCCOc2ccccc2)cc1OC	0.0	3.7%[38.3 µM]	-43%[inhibitor]	-2.3	-6%	0.7%	-13%
CCOC(=O)C1=C(C)N=c2s/c(=C/c3ccccc3)c(=O)n2C1c1ccc(OC)c(OC)c1 (stereo not drawn)	1.3	6.2%	25%	-0.4	0%	42%	1%
COc1ccc(NC(=O)Cc2c(C)n(C(=O)c3ccc(Cl)cc3)c3ccc(OC)cc23)cc1	4.4	9.0%	21%	1.5	-16%	nt	?
CCN(c1ccc(OC)cc1)c1ncnc2nc[nH]c12	-1.3	-0.8%	8%	-1.7	1%	1.9%	-15%
O=C(O)C1(Nc2ccccc2Cl)CCCC1	nt	1.3%	?	-8.2	-7%	nt	nt
COc1cccc(NC(=O)c2cccc(C)c2[N+](=O)[O-])c1	-4.5	-0.6%	?	2.0	-7%	nt	-2%
Cc1ccc([C@H]2C[C@H](O)[C@@H](n3cc(C4CC4)nn3)CN2CC2CCCCC2)cc1	nt	1.7%	-8%	-11	nt	-0.7%	nt
COc1ccc(NC(=O)c2ccc(NC(=O)CN3CCC(C(N)=O)CC3)cc2)cc1	nt	0.3%	10%[15.4 µM]	0.0	-4%	-8.0%	nt
O=C(CN1CCC(n2nnc3ccccc32)CC1)NCc1cccs1	4.9	2.8%	-56%[inhibitor]	-0.7	6%	-3.3%	18%
COc1ccc(NC(=O)c2ccc(-c3ccccc3)cc2)cc1S(=O)(=O)N1CCOCC1	-0.5	7.0%	10%[15.4 µM]	-3.2	-38%	nt	9%
COc1cc(C(C)=O)ccc1OCC(=O)N(CCC1=CCCCC1)c1c(N)n(Cc2ccccc2)c(=O)[nH]c1=O	nt	27%	-21%	3.2	-9%	-11%	nt
O=C(COC(=O)CCSc1ccccc1)Nc1ccc(F)cc1Cl	5.0	0.5%	-54%[inhibitor]	-4.8	5%	nt	-1%
CCOc1ccc2[nH]cc(C(=O)NCc3ccccc3)c(=O)c2c1	-0.1	6.3%	-35%[inhibitor]	7.4	?	-28%	-5%
CC(C)CCNC(=O)CN(C)S(=O)(=O)c1cccc2nsnc12	0.7	-2.6%	6%	-1.8	11%	0.4%	9%
COc1ccc(S(=O)(=O)Nc2ccccn2)cc1C(=O)Nc1ccccc1	-3.6	?	3%	-3.2	-15%	-17%	10%
COCC(=O)N1CCC[C@@]2(CCN(Cc3nccs3)C2)C1	-3.3	0.7%	nt	nt	nt	nt	18%
CCC1(C)Cc2nc(Cl)c(C#N)cc2CO1 (stereo not drawn)	1.4	-0.2%	25%	-0.7	2%	-2.1%	23%
NS(=O)(=O)c1ccc(NNC(=O)c2cccs2)cc1	0.3	0.5%	14%[15.4 µM]	3.9	12%	nt	?
The results go on.
SMILES	Menin-MLL FL inh	PINK1 modulator	gsp ag	D2 ag	gsp antagonist	ClpP mod	Sfp PPTase inh
COc1c(F)c(F)c(C(=O)Nc2c(C)cc(Br)cc2C)c(F)c1F	-1.6	3.6%	2%	-2.6	5%	0.5%	-11%
O=C(NC(=S)Nc1cc(C(F)(F)F)ccc1N1CCOCC1)c1ccc(-c2cccc(Cl)c2)o1	1.4	2.2%	-16%	-7.4	10%	-7.1%	-15%
O=C(CSc1nnc2ccc(-c3ccccn3)nn12)Nc1ccc(F)cc1	nt	0.1%	16%	-1.2	nt	1.4%	nt
CSc1ccc(CN2CCC2(C)C(=O)Nc2cnc3ccccc3c2)cc1 (stereo not drawn)	nt	-0.1%	nt	4.2	nt	-4.4%	nt
O=C1[C@H]2[C@@H](c3ccc(C(F)(F)F)cc3)N[C@]3(CCCN(Cc4ccc(Br)cc4)C3=O)[C@H]2C(=O)N1Cc1ccccc1	nt	3.3%	2%	3.6	nt	2.6%	nt
